Screening results from PubChem BioAssay.
Menin-MLL FL inh: menin-MLL binding inhibition, fluorescein peptide; Fluorescence polarization, fluorescein-MLL peptide displacement from menin; 290,000 tested, under 10 active; FP activity change, % at 61.4 µM; inconclusive = falling polarisation curve, or a change in total fluorescence; inactive = total fluorescence flat and polarisation flat or rising; no compound was filed as active; the % refers to the polarisation; negative = inhibition;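 further: % of control where 0% means no effect; inhibitors lower the polarisation; unlabelled MLL peptide was the positive control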
Sfp PPTase inh: Sfp phosphopantetheinyl transferase inhibition. hit rate 3.5% among 310,000. Biochemical Sfp PPTase activity, qHTS. Q9F4F7. Potency, µM, for the others: max response, negative = inhibition, actives largely listed as inhibitors; active means well fitted inhibition curve with a large enough effect; inconclusive means small, poorly fitted or top-dose-only effect, or another doubt; inactive means no such curve, though single readings can be large or run the other way;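 further: the enzyme is Sfp with the accession as filed and its product quenches rhodamine fluorescence; potency means the concentration at half of the fitted maximal effect; 0% = enzyme reaction without inhibitor and -100% = no enzyme wells; top concentration of the series not given in the record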
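After 15 min at room temperature with compound, 15 nM Sfp received 5 uM rhodamine-CoA plus 12.5 uM BHQ-2-ybbR (50 mM Hepes pH 7.6, 10 mM MgCl2). Rate came from the fluorescence difference over 30 min, ex 525/em 598 nm.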
TRPV1 PAM: enhances activation of the human vanilloid receptor TRPV1 | Q8NER1 | TRPV1-expressing cells, Fluo-8 calcium influx, capsaicin EC20 potentiation; host cell line not named in the record; control for the full effect not named in the record | potentiation, % at 8.33 µM | hit rate 0.02% among 320,000; active means potentiation above 80%; inconclusive means 30% to 80%; inactive means below 30%; further: 0% is about no effect
Target sequence (Q8NER1 whole entry, looked up): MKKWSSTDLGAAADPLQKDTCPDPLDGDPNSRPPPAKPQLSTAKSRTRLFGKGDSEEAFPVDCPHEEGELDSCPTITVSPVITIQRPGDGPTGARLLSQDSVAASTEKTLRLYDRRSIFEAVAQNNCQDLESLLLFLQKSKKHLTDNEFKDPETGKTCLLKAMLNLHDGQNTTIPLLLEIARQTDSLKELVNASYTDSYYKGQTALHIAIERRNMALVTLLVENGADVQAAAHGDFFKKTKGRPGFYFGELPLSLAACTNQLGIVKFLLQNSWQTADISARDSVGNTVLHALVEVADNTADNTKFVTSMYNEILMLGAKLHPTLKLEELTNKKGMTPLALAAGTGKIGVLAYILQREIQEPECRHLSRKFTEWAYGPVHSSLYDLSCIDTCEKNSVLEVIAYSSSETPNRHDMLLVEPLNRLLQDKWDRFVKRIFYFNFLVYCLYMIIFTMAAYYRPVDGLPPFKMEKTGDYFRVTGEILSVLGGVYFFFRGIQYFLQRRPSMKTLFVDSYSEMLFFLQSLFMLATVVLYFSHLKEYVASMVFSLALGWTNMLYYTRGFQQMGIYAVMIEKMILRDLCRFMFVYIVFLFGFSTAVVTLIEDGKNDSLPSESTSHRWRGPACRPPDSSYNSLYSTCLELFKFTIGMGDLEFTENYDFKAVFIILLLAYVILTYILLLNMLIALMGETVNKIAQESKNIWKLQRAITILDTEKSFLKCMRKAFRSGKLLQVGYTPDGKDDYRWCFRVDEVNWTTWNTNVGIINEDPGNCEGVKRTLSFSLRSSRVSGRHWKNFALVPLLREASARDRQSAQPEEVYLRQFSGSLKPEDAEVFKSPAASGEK
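TRPV1-expressing cells were cultured overnight at 35.5C and loaded with Fluo-8 calcium dye for 40 to 90 min at room temperature. After a 10 s baseline, compound was added and calcium influx was read kinetically for 3 min (ex 480/em 520 nm).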
TRPML1 blocker: inhibitors of human TRPML1 channel. TRPML1-inducible cells, Ca2+ dye fluorescence, FDSS; stronger effect = lower value; inhibition of EC80 agonist-evoked calcium signal. Q9GZU1. hit rate 0.02% among 390,000. activity change, negative = inhibition, % (concentration not given with the values); in the data active means activity change below about -50%; inconclusive means about -30% to -50%; inactive means above about -30%;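 further: stimulus is agonist 54-4 at its EC80 concentration; on the % scale 0 is the no-effect control and ±100 the full control effect; compound concentration not given in the record; the text of the record puts the active cut at -80%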
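TRPML1-DL cells, Tet-induced overnight (~16 h, 37 °C) at 1,500 cells/well, were loaded with Ca8 no-wash dye plus quencher for 45-90 min at room temperature. Compounds were pinned during FDSS kinetic reading; agonist 54-4 at EC80 (4 uM final) then added.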
gsp antag: antagonizes gsp, the McCune-Albright syndrome mutation. gsp-mutant cells, cAMP HTRF, 30 min; control for the full effect not named in the record. Potency, µM (highest dose often 76.9 µM), for the others: at the highest dose activity change, negative = inhibition, most hits filed as inhibitors. hit rate 0.4% among 340,000; active = falling curve of any shape with a large fitted effect; inconclusive = falling curve, mostly with a smaller effect; inactive = flat or rising curve; cell line not stated here;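 further: intracellular cAMP measured with PDE inhibitor Ro 20-1724 present during compound exposure; potency means the concentration at half of the fitted maximal effect; on the % scale 0 is the no-effect control and ±100 the full control effect; nearly all actives have a fitted effect of over 65% in size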
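Measurement of cellular cAMP by homogeneous time-resolved fluorescence following a 30 min compound exposure at 37C. The PDE inhibitor […] was present throughout; the assay buffer was DPBS with 0.05% BSA and 0.005% Tween 20.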
gsp ag: activates gsp, the McCune-Albright syndrome mutation | hit rate 0.13% among 340,000 | AID 624287 | Potency, µM (top dose mostly 76.9 µM), for the others: at the top dose activation (cAMP increase), usual class: activators | gsp mutant cells, cAMP HTRF, 30 min; control for the full effect not named in the record; active = well fitted activation curve with a large enough effect; inconclusive = small, poorly fitted or top-dose-only effect, or another doubt; inactive = no such curve, though single readings can be large or run the other way; cell line not stated here;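 further: phosphodiesterase inhibitor Ro 20-1724 added with compounds to block cAMP breakdown; potency means the concentration at half of the fitted maximal effect; nearly all actives have a fitted effect of over 60% in size; about a fifth of the inactives were tested at one dose only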
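Cells in DMEM/10% FBS with G418 were pretreated with compounds in DMSO plus […] (300 uM stock) for 30 min at 37C. cAMP was measured by HTRF (cAMP-d2 plus anti-cAMP antibody-K) after 30 min at room temperature.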
ClpP mod: qHTS Assay for Activators of ClpP; ATP-dependent Clp protease proteolytic subunit (Bacillus subtilis (strain 168)), P80244; purified B. subtilis ClpP, FRET peptide cleavage, 20 min; Potency, µM (doses to about 57.5 µM), for inactives: at the top dose activity change, negative = active; hit rate 1.9% among 340,000; AID 651965, 2013; active = well fitted falling curve with a large enough effect; inconclusive = small, poorly fitted or top-dose-only effect; inactive = no such curve, though single readings can be large or run the other way; further: potency means the concentration at half of the fitted maximal effect; the source files actives as falling curves though it sought activators and does not explain the sign; nearly all actives have a fitted effect of over 65% in size; many hits overshoot -100%
Target sequence (P80244 whole entry, looked up): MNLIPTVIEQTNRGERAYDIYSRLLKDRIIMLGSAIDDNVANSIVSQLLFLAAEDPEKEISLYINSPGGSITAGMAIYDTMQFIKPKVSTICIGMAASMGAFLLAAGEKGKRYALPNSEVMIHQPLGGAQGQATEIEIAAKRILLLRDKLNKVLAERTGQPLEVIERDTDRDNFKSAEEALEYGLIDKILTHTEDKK
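FRET quenching reversal measured ClpP activation: 10 microg/mL B. subtilis ClpP at pH 8 with the FRET-FV decapeptide, read at 430 nm after 320 nm excitation. The 20-min minus 0-min signal was scaled between DMSO/no-enzyme wells and ADEP (5.8 microM final).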
Active calls of the source: *; ? = inconclusive; nt = no result given; & = joins results of further samples; [ ] = dose if it differs, or a comment.

SMILES	Menin-MLL FL inh	Sfp PPTase inh	TRPV1 PAM	TRPML1 blocker	gsp antag	gsp ag	ClpP mod
COc1ccc2cc(C)c3nnc(SCc4cccnc4)n3c2c1	-2.5	21.7%	-1.3	-9.5	-8.3%	-15.1%	nt
CCC(O)c1cc2c(cc1NC(=O)c1cccs1)OCCO2 (stereo not given)	3.2	15.8%	-0.1	5.5	2.7%	16.2%	-3.5%
CC(C)(C)NS(=O)(=O)c1ccc(NC(=S)NC(=O)C2CCC2)cc1	nt	3.7%	-0.1	-1.7	-1.4%	-8.0%[15.4 µM]	1.6%
C[C@H](NC(=O)c1ccco1)C(=O)NCc1cccs1	nt	nt	1.6	-3.2	10.7%	?	0.9%
O=C(NCc1ccccc1Cl)C1CCN(S(=O)(=O)c2cccc3nonc23)CC1	-0.1	16.7%	9.9	-15.4	-0.8%	-20.2%[15.4 µM]	nt
CC(C)OC(=O)c1ccccc1C(=O)c1ccc(N)c([N+](=O)[O-])c1	5.9	7.0%	-0.8	1.4	8.7%	-46.5%[inhibitor]	nt
COc1ccc(C(C)=O)cc1COC(=O)c1ccc2ccccc2n1	1.5	18.7%	-5.1	-11.0	4.3%	1.3%	nt
COc1ccc(N2CCN(CCCn3c(=S)[nH]c4ncccc4c3=O)CC2)cc1	1.2	-20.3%	-3.4	1.2	4.9%	-31.1%	-2.4%
COc1ccc(N2CCN(CCNC(=O)Nc3ccc(Cl)cc3)CC2)cc1	1.3	-1.7%	8.8	33.4	9.4%	-2.8%	-6.2%
Cc1cc(-c2ccccc2)nc(Oc2ccc(C(C)(C)C)cc2)c1S(C)(=O)=O	-0.5	-1.9%	-6.4	15.2	5.8%[15.4 µM]	12.0%	?
O=C(OCc1ccc(F)cc1)c1cc2ccccc2cc1O	0.7	-4.2%	-1.4	1.9	-8.9%	1.4%	3.1%
CCC(C)NC(=O)N[C@@H](CCSC)C(=O)OC (stereo not given in full)	1.5	2.8%	1.6	-0.6	1.5%	9.2%	-0.9%
O=C(NC1CCCC1)C1CCCN1C(=O)Nc1ccc(Cl)cc1 (stereo not given)	2.7	17.7%	7.7	-8.9	11.0%	13.3%	0.1%
O=C(O)CCc1ncc(C(F)(F)F)cc1Cl	1.2	14.9%	5.8	-4.0	11.8%	-20.4%	-1.1%
CCC(C)NC(=O)Nc1ccc(Br)cc1 (stereo not given)	-2.5	9.4%	5.1	12.7	-4.9%	-24.1%	nt
CC(=O)N(C(C)=O)c1c(C#N)c(C)n(-c2ccccc2)c1C(=O)c1ccccc1	5.0	4.3%	4.5	3.5	-2.6%	-13.0%	1.8%
O=C1N[C@H](Cc2ccccc2)COC(=O)[C@H](Cc2ccc(F)cc2)CC/C=C/C[C@@H]1CC(=O)N(CCO)Cc1ccccc1	nt	nt	nt	-18.3	-16.6%	-6.6%	1.7%
O=C(NNC(=O)c1ccccc1O)c1ccc(Br)cc1	2.8	27.4%	-14.8	4.5	-16.4%	-37.3%[inhibitor]	nt
O=C(OCC(=O)N1CCN(C(=O)COC(=O)c2ccc(O)cc2O)CC1)c1ccc(O)cc1O	nt	nt	-0.2	6.2	16.7%	-21.9%	-1.3%
Cc1cc(N2C(=O)C3C4CCC(C4)C3C2=O)no1 (stereo not given)	-3.3	20.6%	-5.6	34.3	8.8%	3.7%	nt
COc1ccc(CCN2CN(S(=O)(=O)c3ccccc3)c3nc4ccccc4nc32)cc1OC	1.6	-5.0%	-4.5	53.9	-9.2%	-24.1%	-2.3%
O=C(Sc1ccc(Cl)cc1)c1ccccn1	nt	nt	nt	1.3	6.6%	2.8%	nt
Cc1cccc(C)c1NC(=O)CSc1nnc(-c2ccccc2)n1Cc1ccc2c(c1)OCO2	-1.1	-9.2%	-4.0	11.8	-11.1%	-55.4%[inhibitor]	-1.1%
CCOC(=O)CCC(NC(=O)c1ccc(NCN2C(=O)c3ccccc3C2=O)cc1)C(=O)OCC (stereo not given)	-0.3	0.5%	-2.4	-29.9	-2.5%	-1.5%	-1.7%
N#Cc1c(Sc2ncc(C(F)(F)F)cc2Cl)nsc1C/C=N\OCc1c(F)cccc1Cl	7.7	4.5%	-2.9	4.1	-0.4%	-8.4%	-0.8%
COc1ccc(NC(=O)CC2C(=O)N(c3ccc(OC)cc3)C(=O)N2CCc2cccs2)cc1 (stereo not given)	8.2	3.7%	3.7	13.6	-4.7%	2.2%	-1.2%
Cc1oc(C(=O)O)cc1COc1ccccc1Cl	-2.2	4.8%	-1.6	-1.8	-20.1%	1.0%	-2.4%
CCCCCOC(=O)C1[C@H]2C(=O)N(Cc3cccs3)C[C@]23C=C[C@H]1O3 (stereo not given in full)	0.9	8.4%	-9.2	-27.6	-1.2%	15.3%	0.8%
NS(=O)(=O)c1ccc(NC(=O)CSC2CCCCC2)cc1	2.6	13.3%	-17.3	0.1	7.0%	-15.0%	0.6%
Cc1ccccc1Nc1c(-c2ccc(N3CCOCC3)cc2)nc2cnccn12	6.7	4.3%	8.0	-4.8	0.1%	?	nt
C=CCN1C(=O)NC2(CCCCC2)C1=O	1.6	9.0%	10.1	35.0	9.6%	15.5%	11.8%
COc1ccc(N2C(=O)CN=C2Nc2nc(C)cc(C)n2)cc1	1.1	?	-37.7	2.6	8.7%	-27.1%	-1.3%
CCS(=O)(=O)N1Cc2ccccc2CC1C(=O)Nc1nnc(SCc2ccc(C#N)cc2)s1 (stereo not given)	1.0	6.0%	17.5	-4.8	-22.7%	7.1%	-4.6%
COC(=O)COc1cccc2c(=O)n(CC(=O)NCc3ccccc3)ccc12	5.6	-2.7%	?	-11.9	29.7%	-3.9%[15.4 µM]	nt
Cc1cccc(NC(=S)NC2CCCC2)n1	-0.1	10µM*	8.5	1.4	11.6%	0.9%	2.1%
O=C(NCCc1ccc(Cl)cc1)c1ncn[nH]1	4.2	-5.8%	5.8	-11.2	-0.2%	-13.0%	-1.9%
COc1ccc(C(=O)Nc2ccc(Nc3ccccc3)cc2)cc1[N+](=O)[O-]	2.4	12.2%	-1.7	nt	28.2µM*	-10.6%	1.1%
COc1cccc(-n2c(-c3ccccc3)c[nH]c2=S)c1	-2.1	44.7µM*	16.9	-13.1	-16.9%	?	nt
CO/N=C/C(C#N)=C/c1cc(C(=O)c2ccccc2)cn1C	2.3	3.4%	-11.8	8.0	-28.7%	-2.7%[15.4 µM]	nt
CCOC(=O)CC1C(=O)NCCN1C(=O)c1c(F)cccc1F (stereo not given)	-3.0	12.4%	7.6	-5.5	-0.7%	23.7%	0.6%
CCOC(=O)CC1CCCCN1Cc1cn[nH]c1-c1ccc(F)cc1F (stereo not given)	-0.2	14.7%	5.1	3.2	-1.5%	-20.1%	1.3%
Cc1ccsc1/C=N/NC(=O)CNC(=O)c1ccc(S(=O)(=O)N2CCOCC2)cc1	1.9	8.7%	10.0	-14.8	3.5%	-20.2%	0.3%
Cc1ccccc1CNC(=O)CCNS(=O)(=O)c1ccc(OC(F)(F)F)cc1	nt	nt	-6.6	3.5	-11.7%	-56.9%[inhibitor]	-8.5%
Cc1cc(C)c(-c2c(N)cc(Br)cc2Br)c(N)c1	nt	nt	nt	78.1	-0.3%	30.6%	nt
CS(=O)(=O)N1CCC(C(=O)Nc2ccc(OCc3ccccc3)cc2)CC1	-1.2	3.2%	-10.2	-5.7	0.1%	-0.8%	-1.8%
O=C(COCc1nc2ccccc2c(=O)[nH]1)NC1CCCC1	4.7	19.3%	-4.6	5.9	3.8%	1.2%	-1.9%
CN(C(=S)NC1CCCCC1)C1(c2ccccc2Cl)CCCCC1=O (stereo not given)	-1.2	8.1%	-5.1	61.5	-8.6%	-22.1%	nt
CC1CC1C(=O)OCC(=O)Nc1ccc(Cl)cn1 (stereo not given)	nt	nt	nt	-8.3	6.1%	?	0.4%
O=C(COC(=O)c1cc2ccccc2cc1O)NC1CCCCC1	nt	nt	nt	4.5	0.4%	-36.5%[inhibitor]	2.1%
Nc1ncnc2c1cnn2C1CC(O)C(CO)O1 (stereo not given)	nt	nt	nt	2.5	3.0%	-3.2%	-1.9%
More compounds follow:
SMILES	Menin-MLL FL inh	Sfp PPTase inh	TRPV1 PAM	TRPML1 blocker	gsp antag	gsp ag	ClpP mod
Cn1c(=O)c2c(nc(Br)n2CCCc2ccccc2)n(C)c1=O	4.5	?	-5.2	-23.0	-2.0%	-32.4%[inhibitor]	-2.7%
CCOC(=O)C1CCCN(C(=O)c2ccccc2NS(=O)(=O)c2ccc(F)cc2)C1 (stereo not given)	nt	nt	nt	0.9	-4.2%	3.0%	nt
O=C(CCn1cnnn1)Nc1ccccc1	-1.6	3.6%	-3.9	-11.1&-5.3	-11.3%	-4.4%[15.4 µM]	?
S=c1[nH]nc(-c2cccnc2)n1/N=C/c1ccc(Br)s1	3.1	3.9%	17.4	3.1	?	-4.8%[15.4 µM]	0.3%
Cc1nnc(SCC(=O)c2cc(C)n(-c3ccc4c(c3)OCO4)c2C)s1	6.1	-15.5%	-20.1	11.6	?	0.3%	-2.3%
CN1CC=C2C(C#N)=C(N)C(C#N)(C#N)[C@H](c3cccs3)[C@H]2C1	?	7.0%	-0.4	-5.3	-15.1%	-2.4%[15.4 µM]	-4.8%
O=C(NCCCn1ccnc1)c1ccc2ccccc2c1	nt	9.7%	-6.7	12.3	10.6%	14.9%	-4.2%
Cc1c(C(=O)NCCCN2CCOCC2)sc2nc(-c3ccccc3)cn12	1.3	13.0%	5.9	nt	nt	nt	nt
O=C(NCCC1CCCCN1S(=O)(=O)c1ccc(F)cc1)C(=O)Nc1ccccc1F (stereo not given)	nt	nt	9.4	53.5	-12.2%	18.1%[15.4 µM]	nt
CCN(CC(=O)Nc1ccc(NC(C)=O)cc1)C(=O)c1ccc(S(=O)(=O)N2CCCC2)cc1	nt	nt	nt	8.9	-12.8%	24.1%	-2.6%
